# Assay outcomes from PubChem BioAssay.
# Menin MLL FP FL = menin-MLL binding inhibition, fluorescein peptide | AID 1766 | 290,000 tested, under 10 active | FP activity change, % at 61.4 µM | Fluorescence polarization, fluorescein-MLL peptide displacement from menin; inconclusive = falling polarisation curve, or a change in total fluorescence; inactive = total fluorescence flat and polarisation flat or rising; no compound was filed as active; the % refers to the polarisation; negative = inhibition;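 note: % of control where 0% means no effect; inhibitors lower the polarisation; unlabelled MLL peptide was the positive control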
# TRPML1 inh = human mucolipin-1 channel inhibition; activity change, negative = inhibition, % (concentration not given with the values); AID 624415; 390,000 compounds, 0.02% hits; TRPML1-inducible cells, Ca2+ dye fluorescence, FDSS; stronger effect = lower value; inhibition of EC80 agonist-evoked calcium signal; in the data active means activity change below about -50%; inconclusive means about -30% to -50%; inactive means above about -30%;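 note: stimulus is agonist 54-4 at its EC80 concentration; % is set by controls: 0 for no effect and ±100 for the full control effect; the text of the record puts the active cut at -80%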
#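 Tet-induced TRPML1-DL cells loaded with Ca8 no-wash calcium dye were read kinetically on FDSS. Compound addition was followed by EC80 agonist 54-4 (4 uM final); inhibition was read over 110 s.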
# TRPV1 potentiator = enhances activation of the human vanilloid receptor TRPV1; potentiation, % at 8.33 µM; TRPV1-expressing cells, Fluo-8 calcium influx, capsaicin EC20 potentiation; host cell line not named in the record; control for the full effect not named in the record; Q8NER1; 320,000 compounds, 0.02% hits; AID 540277; active means potentiation above 80%; inconclusive means 30% to 80%; inactive means below 30%; note: 0% is about no effect
# Target sequence (Q8NER1 whole entry, looked up): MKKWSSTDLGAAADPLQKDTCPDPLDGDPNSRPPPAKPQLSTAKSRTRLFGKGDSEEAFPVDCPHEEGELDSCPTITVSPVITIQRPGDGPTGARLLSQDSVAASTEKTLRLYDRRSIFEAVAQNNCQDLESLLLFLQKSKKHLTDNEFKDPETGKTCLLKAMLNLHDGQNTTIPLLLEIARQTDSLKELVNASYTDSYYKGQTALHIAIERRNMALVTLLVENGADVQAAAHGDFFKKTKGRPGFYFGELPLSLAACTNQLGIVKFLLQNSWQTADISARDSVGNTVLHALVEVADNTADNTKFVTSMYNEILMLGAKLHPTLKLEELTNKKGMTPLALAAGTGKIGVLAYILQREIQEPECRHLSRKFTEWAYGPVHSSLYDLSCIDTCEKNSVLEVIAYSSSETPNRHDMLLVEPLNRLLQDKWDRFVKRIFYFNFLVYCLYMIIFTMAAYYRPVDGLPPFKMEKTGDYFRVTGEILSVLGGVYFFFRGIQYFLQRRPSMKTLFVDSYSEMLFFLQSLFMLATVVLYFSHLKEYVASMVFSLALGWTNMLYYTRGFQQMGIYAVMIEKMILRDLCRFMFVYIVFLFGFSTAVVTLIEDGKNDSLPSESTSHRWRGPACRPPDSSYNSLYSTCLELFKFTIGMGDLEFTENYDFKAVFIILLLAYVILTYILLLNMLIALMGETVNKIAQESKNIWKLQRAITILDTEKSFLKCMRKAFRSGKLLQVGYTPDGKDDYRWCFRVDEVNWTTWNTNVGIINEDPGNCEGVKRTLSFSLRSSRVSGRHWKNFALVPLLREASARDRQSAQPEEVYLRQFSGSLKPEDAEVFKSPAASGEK
#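 TRPV1-expressing cells were cultured overnight at 35.5C and loaded with Fluo-8 calcium dye for 40 to 90 min at room temperature. After a 10 s baseline, compound was added and calcium influx was read kinetically for 3 min (ex 480/em 520 nm).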
# TRPML1 ag = activates the human TRPML1 channel; Q9GZU1; 410,000 compounds, 0.12% hits; TRPML1-expressing cells, Ca2+ dye fluorescence, FDSS; host cell line not named in the record; reference of the full effect not given here; activation, % (no concentration beside the values); AID 624414; in the data active = activation above about 50%; inconclusive = about 30% to 50%; inactive = below about 30%; note: 0% is about no effect; the text of the record puts the active cut at 80%
#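 Tet-induced TRPML1-DL cells, 1,500 per well, cultured overnight, were loaded with a no-wash Ca2+ dye for 45–90 min. Calcium fluorescence was recorded on the FDSS for 110 s after compound addition, before the EC80 agonist (4 uM 54-4) was added.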
# PINK1 modulator = changes PINK1 expression; PINK1 immunofluorescence, high-content cytometry, 24 h; Potency, µM (series often up to 76.6 µM), for the others: top-dose activation (PINK1 increase), usual class: activators; 410,000 compounds, 0.2% hits; AID 624263; active = well fitted activation curve with a large enough effect; inconclusive = small, poorly fitted or top-dose-only effect; inactive = flat fitted curve, though single readings scatter; cell line not stated here;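 note: potency is the fitted concentration of half-maximal effect; % of control where 0% means no effect; nearly all actives have a fitted effect of over 65% in size; a mitochondrial uncoupler was the plate control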
#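 Fluorescence from anti-PINK1 antibody, together with nuclear and cell stains, was scanned on a laser-scanning cytometer. Before staining, stable-line cells were incubated 24 hours with compounds at 5 concentrations; primary antibody 12 h at 10 degrees C.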
# Sfp PPTase inh = blocks B. subtilis Sfp PPTase activity | Q9F4F7 | Biochemical Sfp PPTase activity, qHTS | Potency, µM, for the others: max response, negative = inhibition, hits mostly inhibitors | 310,000 compounds, 3.5% hits; active = well fitted inhibition curve with a large enough effect; inconclusive = small, poorly fitted or top-dose-only effect, or another doubt; inactive = no such curve, though single readings can be large or run the other way;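 note: the enzyme is Sfp with the accession as filed and its product quenches rhodamine fluorescence; potency is the fitted concentration of half-maximal effect; 0% = enzyme reaction without inhibitor and -100% = no enzyme wells; top concentration of the series not given in the record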
#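 Reaction rates are the 30-min fluorescence difference (ex 525, em 598 nm) in wells containing 15 nM Sfp, 5 uM rhodamine-CoA and 12.5 uM BHQ-2-YbbR at pH 7.6 with 10 mM MgCl2.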
# ClpP mod = qHTS Assay for Activators of ClpP; Potency, µM (top dose mostly 57.5 µM), inactives show at the highest dose activity change, negative = active; 340,000 compounds, 1.9% hits; AID 651965, 2013; ATP-dependent Clp protease proteolytic subunit (Bacillus subtilis (strain 168)), P80244; purified B. subtilis ClpP, FRET peptide cleavage, 20 min; active = well fitted falling curve with a large enough effect; inconclusive = small, poorly fitted or top-dose-only effect; inactive = no such curve, though single readings can be large or run the other way; note: potency is the fitted concentration of half-maximal effect; the source files actives as falling curves though it sought activators and does not explain the sign; nearly all actives have a fitted effect of over 65% in size; many hits overshoot -100%
# Target sequence (P80244 whole entry, looked up): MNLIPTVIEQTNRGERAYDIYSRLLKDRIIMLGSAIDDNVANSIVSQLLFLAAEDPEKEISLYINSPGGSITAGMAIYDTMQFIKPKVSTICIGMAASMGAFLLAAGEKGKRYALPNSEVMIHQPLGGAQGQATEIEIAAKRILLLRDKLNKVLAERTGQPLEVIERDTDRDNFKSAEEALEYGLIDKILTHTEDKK
#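 Purified B. subtilis ClpP, 10 microg/mL final in Tris/HCl pH8 with KCl, BSA, glycerol and Tween-20, cleaved an Abz/nitrotyrosine-quenched decapeptide. Fluorescence (ex 320, em 430) was read at 0 and 20 min at room temperature. Delta was normalized to 5.8 microM ADEP and DMSO/no-enzyme controls.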
# Active calls of the source: *; ? = inconclusive; · = no result given; & = joins results of further samples; [ ] = remark or other dose.
SMILES,Menin MLL FP FL,TRPML1 inh,TRPV1 potentiator,TRPML1 ag,PINK1 modulator,Sfp PPTase inh,ClpP mod
COc1ccc(Cl)cc1NC(=O)CN(C)CC(=O)Nc1c(C)n(C)n(-c2ccccc2)c1=O,·,13.6,-3.3,0.3,-0.9%,·,-1.7%
S=C(NN=Cc1ccccn1)Nc1ccccn1,·,3.2,·,0.1,20.3%,·,-3.9%
O=C1CSC(=NC(=O)c2ccccc2)N1,1.0,-13.0,0.9,-0.1,?,9.0%,1.0%
CCOC(=O)c1sc2nc(C)c([N+](=O)[O-])c(COC)c2c1N,-4.4,-12.7,-1.5,0.0,1.9%,-19.9%,3.1%
CCc1nnc(NS(=O)(=O)c2ccc(NC(=S)NC(=O)c3ccc(OC)cc3)cc2)s1,4.2,16.7,-4.4,1.5,-1.5%,-22.8%,-6.1%
CCOc1cccc(C(=O)Nc2ccc3oc(-c4ccncc4)nc3c2)c1,·,28.9,·,-0.5,9.5%,·,4.2%
COCCNc1oc(-c2ccc(C)cc2)nc1C#N,1.5,16.2,-5.5,1.9,-0.4%,-2.1%,-11.6%
Cn1c(N2CCOCC2)nc2c1c(=O)n(Cc1ccc(Cl)c(Cl)c1)c(=O)n2C,9.2,1.0,14.1,0.0,3.0%,-18.4%,-3.9%
CC(=O)c1ccc(NC(=S)N2CC(C)CC(C)C2)cc1 (configuration not stated),1.0,-10.4,-5.4,0.4,-1.2%,8.8%,2.3%
Cc1cc(SCC(=O)Nc2cccnc2Cl)nc2ccccc12,-1.7,-11.1,-10.1,-1.1,-0.3%,-7.2%,-1.6%
CC(=O)N1N=C(c2ccc(Br)cc2)CC1c1cccc([N+](=O)[O-])c1 (configuration not stated),·,-6.1,·,0.0,-0.4%,·,-0.9%
c1ccc(OCCSc2nnc3sc4ccccc4n23)cc1,2.8,-3.7,13.2,2.0,·,6.0%,0.4%
O=C1CCC(=O)N1c1nc2nc(-c3ccccc3)cc(-c3ccccc3)n2n1,-2.3,-0.1,-5.1,0.0,0.0%,13.9%,318.2%
O=C(CCOc1ccccc1)Nc1cccc(S(=O)(=O)Nc2ccccc2Cl)c1,·,-2.4,6.0,3.3,2.1%,5.8%,-2.7%
C[C@H](CO)N1C[C@H](C)[C@@H](CN(C)C(=O)Nc2ccc3c(c2)OCO3)Oc2ccc(NS(=O)(=O)c3ccc(F)cc3)cc2C1=O,·,27.3,·,-0.5,-0.5%,·,-1.8%

# One compound at a time (already shown). Order of values: Menin MLL FP FL, TRPML1 inh, TRPV1 potentiator, TRPML1 ag, PINK1 modulator, Sfp PPTase inh, ClpP mod
# CCOc1cccc(C(=O)Nc2ccc3oc(-c4ccncc4)nc3c2)c1 as listed: ·, 28.9, ·, -0.5, 9.5%, ·, 4.2%
# CCOC(=O)c1sc2nc(C)c([N+](=O)[O-])c(COC)c2c1N as listed: -4.4, -12.7, -1.5, 0.0, 1.9%, -19.9%, 3.1%
# S=C(NN=Cc1ccccn1)Nc1ccccn1 as listed: ·, 3.2, ·, 0.1, 20.3%, ·, -3.9%

# Further results:
SMILES,Menin MLL FP FL,TRPML1 inh,TRPV1 potentiator,TRPML1 ag,PINK1 modulator,Sfp PPTase inh,ClpP mod
O=C(CN(C(=O)Cn1nnc(-c2cccs2)n1)c1cnc2ccccc2c1)NCC1CCCO1 (configuration not stated),0.0,10.6,-10.1,1.0,7.5%[38.3 µM],9.6%,-1.5%
CC1(C)NC(=O)N(CC(O)CN(c2ccccc2)S(=O)(=O)c2ccc([N+](=O)[O-])cc2)C1=O (configuration not stated),0.6,-7.0,-1.6,0.0,-0.4%,11.4%,-0.8%
COc1ccc(NC(=O)CCc2nnc3n(CC(C)C)c(=O)c4ccccc4n23)cc1,·,15.3,·,-0.2,-0.4%,·,-2.1%
CCC(=O)NC(Nc1sc2c(c1C(=O)OC)CCN(C)C2)(C(F)(F)F)C(F)(F)F,1.4,28.2,-3.0,0.3,1.6%,2.2%,?
O=C(Nc1cccc(Cl)c1)Nc1ccon1,-4.0,11.3,8.8,2.8,0.7%,-7.2%,0.6%
O=C(CSc1nc2ccccc2c(=O)n1-c1cccc(C(F)(F)F)c1)NC1CC1,1.4,6.9,-17.5,0.7,3.5%,2.6%,-0.4%
Cc1ccccc1N=C/C=C1/C=C(c2ccccc2)OC(C)(C)O1,12.9,3.5,1.1,-0.3,-5.7%[38.3 µM],-12.2%,-2.1%
COc1cc(/C=C/C(=O)OC2CC3CCC2(C)C3(C)C)ccc1O (configuration not stated),-3.6,·,-13.5,·,1.1%,13.5%,?
CC1(C(=O)Nc2cccc(C#N)c2)CCN1C(=O)C1(c2ccccc2)CC1 (configuration not stated),·,·,·,5.2,0.2%,·,2.1%
CCCCCCn1cnc2c(c1=O)c1nc3ccccc3nc1n2/N=C/c1ccco1,0.5,20.4,1.0,-1.7,5.3%,?,-8.8%
CCc1ccc(C(O)(CC)C(CN2CCOCC2)c2ccccc2)cc1 (configuration not stated),-3.8,22.2,-16.1,-0.2,7.7%,3.2%,1.4%
CN(C)C(=S)Nc1ccc(Cl)cc1,-0.3,-16.5,9.4,0.3,1.1%,24.6%,·
Cc1ccc(Cl)cc1N(C)C(=O)C1CCCN(c2ncnc3onc(-c4ccc(F)cc4)c23)C1 (configuration not stated),·,12.9,·,0.9,0.5%,·,?
COc1cc(OC)c2ccc(=O)oc2c1C(CCN1CCCC(C)C1)c1ccc2c(c1)OCO2 (configuration not stated),-6.7&-1.7,14.5&-2.3,-0.9,0.5&0.3,0.1%,11.8%&-4.2%,-7.0%
COc1cc(C=O)ccc1OCc1ccccc1Br,5.9,-7.6,13.4,2.0,19.1%,-16.1%,-1.3%
Cn1c(-c2ccc(F)cc2)cnc1NCc1ccc(F)cc1F,-1.5,-0.8,-13.6,-0.5,1.1%,-17.9%,-7.0%
COc1ccc(CCN(C)C(=O)C2CCCN(C3CCN(Cc4ccccc4)CC3)C2)cc1OC (configuration not stated),1.2,-8.6,2.0,0.2,-0.4%,-23.9%,-1.7%
Cc1ccc(S(=O)(=O)c2nc(-c3ccccc3)oc2SCC(=O)NC2CCCCC2)cc1,·,10.0,·,-0.5,-0.4%,·,-1.2%
Fc1ccc(Nc2nnc(C(F)(F)F)s2)cc1,0.1,-3.1,-6.9,-0.5,?,-1.2%,-8.8%
FC(F)(F)c1cnc(-c2cnc(-c3ccccn3)nc2)c(Cl)c1,4.9,-7.7,-10.2,-0.1,1.3%,6.6%,·
CN(C)c1ccc(/C=N/OC(=O)Nc2ccccc2Cl)cc1,-1.3,-10.6,7.9,0.4,3.6%,-5.9%,-2.4%
Cc1cc(Nc2cc(C)on2)n2ncnc2n1,1.1,-4.8,16.8,0.2,0.8%,-18.9%,-0.3%
CCNC(=O)C(=O)NCC1OCCCN1S(=O)(=O)c1cccs1 (configuration not stated),-0.1,3.3,6.1,0.0,-1.0%,5.4%,-7.1%
COc1ccc(OC)c(N=c2oc3cc(O)ccc3cc2C(N)=O)c1,8.3,12.4,4.2,1.1,11.6%[38.3 µM],12.0%,28.2µM*
CCOC(=O)c1c(C2CC2)csc1NC(=O)COC(=O)CCS(=O)(=O)c1ccc(C)cc1,5.3,-17.2,0.7,0.4,-0.3%,5.6%,0.9%
O=C(NCCc1ccccc1)C1CCN(c2ncnc3c2nc2n3CCCCC2)CC1,·,45.4,·,3.3,25.6%,·,-0.7%
COC(=O)C1=C(C)N(CCCC(=O)O)C(=O)NC1c1ccc(C#N)cc1 (configuration not stated),·,-1.8,·,-0.6,0.4%,·,-3.1%
CCOC(=O)Cc1csc(NC(=O)c2cc(C)cc(C)c2)n1,-1.5,30.4,-3.5,1.1,2.1%,16.1%,·
O=C(c1ccc(Br)o1)N1CCN(C23CC4CC(CC(C4)C2)C3)CC1,·,-0.1,·,0.9,6.9%,·,0.6%
CCc1c(C)sc(NC(=O)C2CC(c3c(F)cccc3Cl)=NO2)c1C#N (configuration not stated),-4.5,4.2,1.4,2.1,0.7%,19.1%,1.1%
CC1(C)CC(=O)C(C=Nc2cccc(/N=C/C3=C(O)CC(C)(C)CC3=O)n2)=C(O)C1,-0.6,·,4.0,·,·,14.0%,·
CC(=O)c1cn(CC(=O)Nc2cccc(C)c2C)c2ccccc12,3.3,-10.0,-3.0,-0.1,-1.2%,44.7µM*,·
Cc1ccc(NC(=O)COc2ccccc2C(N)=O)cc1S(=O)(=O)N1CCCCCC1,·,1.4,-10.7,-0.7,1.5%,·,-2.2%
O=C(CCN1C(=O)/C(=C/C=C/c2ccccc2)SC1=S)Nc1cccnc1,20.1,-11.8,24.1,0.6,2.8%,-6.0%,-0.2%
CN(C1=C(N2CCCCC2)C(=O)c2ccccc2C1=O)c1ccccc1,-0.7,-0.1,9.9,1.6,·,-9.8%,-17.2%
COc1ccc(S(=O)(=O)c2ccccc2)cc1NC(=O)c1c(F)cccc1F,0.3,-5.5,-1.8,-0.3,4.4%,10.1%,-2.1%
O=C(O)c1cnc(-c2ccccc2)nc1Sc1ccc(Cl)cc1Cl,1.6,3.9,·,-0.7,0.8%,15.0%,1.6%
COc1ccc(Br)cc1/C=N/Nc1ccc(Cl)c(C(=O)O)c1,4.9,4.7,-4.7,-0.6,-0.8%,10.6%,-1.9%
N/C(=N\OC(=O)C(c1ccccc1)c1ccccc1)c1cccnc1,-0.1,-2.0,4.3,-0.2,3.1%[38.3 µM],-12.2%,-4.1%
CCOC(=O)c1cc(-c2ccccc2)n(-c2cccc(C(=O)Nc3ccc(OC)cc3)c2)c1C,·,-16.0,·,-0.2,3.7%,·,-3.7%
Cc1nc(NC(=O)c2ccccc2)sc1C,1.7,·,15.2,·,1.6%,25.1%,-1.9%
Cc1ccc(N(C(C)C(=O)O)S(=O)(=O)c2cccnc2)cc1 (configuration not stated),-15.6,4.2,26.4,0.1,3.1%,-2.1%,1.7%
CC1(C)CC[C@]2(C(=O)O)CC[C@]3(CO)C(=CCC4[C@@]5(C)C[C@H](O)[C@H](O)[C@@](C)(C(=O)O)C5CC[C@]43C)[C@@H]2C1 (some centres not stated),·,16.0,·,0.5,-0.2%,·,-5.2%

# This is a random part of the collection; any-hit rate near 4.4%.
